HPGD inh: inhibitors of human 15-hydroxyprostaglandin dehydrogenase (HPGD); P15428; purified HPGD, NADH fluorescence kinetic, PGE2 substrate; Potency, µM, inactives show top-dose activity change, negative = inhibition, most hits filed as inhibitors; 4.3% of 150,000 active; AID 894; active = well fitted inhibition curve with a large enough effect (not every such curve was filed as active); inconclusive = small, poorly fitted or top-dose-only effect, or another doubt; inactive = no such curve, though single readings can be large or run the other way;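 further: top concentration of the series not given in the record; plate controls included wells without enzyme; inactives centre near -10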
Target sequence (P15428 whole entry, looked up): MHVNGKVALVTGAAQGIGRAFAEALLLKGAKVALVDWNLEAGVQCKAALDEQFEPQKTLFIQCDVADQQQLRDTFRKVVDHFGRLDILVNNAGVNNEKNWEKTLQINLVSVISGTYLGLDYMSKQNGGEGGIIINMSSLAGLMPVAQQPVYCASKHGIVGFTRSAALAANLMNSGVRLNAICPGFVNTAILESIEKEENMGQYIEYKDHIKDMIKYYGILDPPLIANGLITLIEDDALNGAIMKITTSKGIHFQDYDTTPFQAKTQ
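NADH formation kinetics: reaction with 30 uM PGE2 and 1 mM NAD+ (final), 20 nM enzyme, Tris-HCl pH 8 with Tween 20, after 15 min compound preincubation at room temperature. Fluorescence change, last versus first of five reads.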
Active calls of the source: *; ? = inconclusive. On the % scale 0 is the no-effect control and ±100 the full control effect; potency means the concentration at half of the fitted maximal effect.

canonical_smiles | HPGD inh
CCOC(=O)N1CCN(CC(O)COC2CC(C)CC(C)(C)C2)CC1 (stereo not drawn) | -8%
Cc1cc(C)nc(SCc2cn3cc(Cl)ccc3n2)n1 | -5%
O=C(CSc1ncn(-c2ccccc2)n1)Nc1ccc(Br)cn1 | 28µM*
Cn1c(SCC(=O)n2c3c(c4ccccc42)CCCC3)nnc1-c1ccccc1 | -8%
NC(=S)N/N=C\c1ccccc1OCc1ccccc1 | -12%
CCOc1ccc(CCN2C(=O)CCC2(C)C(=O)NC(C)CC)cc1OCC (stereo not drawn) | 0%
CCCCN(C(=O)NC(=O)Nc1cc(C)ccc1C)S(C)(=O)=O | -16%
CCn1c(SCC(=O)Nc2nc(C)c(C(=O)OC)s2)nnc1C(C)C | -19%
O=[N+]([O-])c1ccc(N2CCN(c3ccc(Cl)nn3)CC2)c(Cl)c1 | -9%
O=C(CSc1nnc(Cn2c(=O)sc3ccccc32)n1-c1ccccc1)NCc1ccco1 | -11%
Cc1ccc(CNC(=O)Cn2c(=O)c3sccc3n(Cc3cccc([N+](=O)[O-])c3)c2=O)cc1 | -8%
CCc1cccc(C)c1NC(=O)C(c1ccc(O)cc1)N1CCC1=O (stereo not drawn) | 2%
CC(=O)NC1C(Oc2cccc(C)c2)OC2COC(c3ccco3)OC2C1O (stereo not drawn) | 2%
O=C(Nc1ccc(Cl)cc1)C1=Cc2cc(Cl)ccc2OC1 | -8%
CC(C)N(C(=O)Cn1c(SCC(=O)N2CCN(c3ccccc3)CC2)nc2ccccc21)C(C)C | -6%
Cc1ccc(S(=O)(=O)N2CC=C(c3c(C)n(C)c4ccccc34)CC2)cc1 | ?
CCOC(CNC(=O)c1cccn2c(=O)c3cc(Cl)ccc3nc12)OCC | -17%
CC#CCN1c2ccccc2[C@]23C[C@@H](C(=O)OC)N(S(=O)(=O)c4cccs4)C2=NC(C(=O)OC)=C(C(=O)OC)[C@H]13 | 1%
CNCC(O)Cn1c(C(F)(F)F)nc2ccccc21 (stereo not drawn) | -6%
CN(Cc1ccccc1)Cc1nc2c([nH]1)c(=O)[nH]c(=O)n2C | -11%

Remaining list, next part.
canonical_smiles | HPGD inh
Cc1ccc(C(=O)Cn2ncsc2=N)cc1 | -1%
Nc1ncnc(Nc2cc(Cl)cc(Cl)c2)c1[N+](=O)[O-] | -10%
COc1cc2c(cc1OC)-c1cc(NC3CC3)nc(=O)n1CC2 | -28%
N#C/C(=C(/O)COC(=O)CCc1ccc(S(=O)(=O)N2CCOCC2)cc1)c1nc2ccccc2[nH]1 | -17%
Cc1cccc(NC(=O)C2CC(=O)OC23CCCC3)c1 (stereo not drawn) | -16%
CCc1nc(Nc2ccccc2)c2oc3ccccc3c2n1 | ?
CC(=O)c1cc(C(=O)Nc2ccc(C(=O)O)cc2)oc1C | -11%
O=C(Nc1cccc(S(=O)(=O)N2CCOCC2)c1)c1c2c(nc3ccccc13)CCC2 | -11%
COc1ccc(NS(=O)(=O)c2cccc(C(=O)N/N=C/c3cccs3)c2)cc1 | -21%
CNc1nc(C)c(C#N)cc1C(C)=O | -18%
CN(Cc1nc(-c2ccccn2)no1)S(=O)(=O)c1ccc(Cl)cc1 | 25µM*
CCOC(=O)C1=C(C)N(CC)C(=S)NC1c1ccc(Cl)cc1 (stereo not drawn) | -19%
CCCC[n+]1c(-c2ccc(Cl)cc2Cl)csc1Nc1ccccc1 | 0%
Nn1c(SCc2ccccc2)nnc1-c1ccco1 | -1%
O=C(O)c1ccc(F)c(S(=O)(=O)Nc2cccc(F)c2)c1 | 0%
COc1cc(OC)cc(-n2nnnc2SCC(=O)Nc2ccc(C(C)=O)cc2)c1 | -23%
COc1ccc(NC(=O)Cn2nc(Cc3cccnc3)c3ccccc3c2=O)cc1OC | -13%
COc1ccccc1[N+](=O)[O-] | -6%
COc1ccccc1Nc1nc(-c2c(C)[nH]c3ccccc23)cs1 | -24%
CCOC(=O)C1CN(S(=O)(=O)c2ccc(C)cc2)C1 | 1%

More records follow:
canonical_smiles | HPGD inh
CCOc1ccc(C(=O)NCc2cccnc2)cc1 | -12%
CC1CCCC2(C1)NC(=S)c1c(sc3c1CCCC3)N2 (stereo not drawn) | 4.5µM*
O=C(NC(=S)Nc1cccnc1)c1cc2ccccc2o1 | -19%
Cc1ccc(Cn2c(C)nc3c(c2=O)c2nc4ccccc4nc2n3Cc2ccco2)cc1 | ?
CCCn1c(N)c(C(=O)CN2CCN(S(=O)(=O)c3cccs3)CC2)c(=O)[nH]c1=O | 0%
COc1ccc(/C(O)=C2/C(=O)C(=O)N(CCN3CCOCC3)C2c2ccc(C)cc2)cc1 (stereo not drawn) | -10%
Cc1ccc(C)c(S(=O)(=O)NCc2ccc(C(=O)N3CC(C)OC(C)C3)cc2)c1 (stereo not drawn) | -27%
CCOc1cc(C)nc(NCCc2ccc(OC)c(OC)c2)n1 | 3%
O=C(CSc1nc(O)cc(=O)n1-c1ccccc1)NC1CCCCC1 | -14%
Cc1[nH]nc(SCC(=O)NCc2ccccc2)c1[N+](=O)[O-] | -25%
COCCN1C=C2C(=O)C(C)(OC(=O)CCc3ccccc3)C(=O)C=C2C=C1c1ccc(C#N)cc1 (stereo not drawn) | -3%
O=C(NCCn1cc(SCc2ccccc2)c2ccccc21)c1c(F)cccc1F | -8%
COCCn1c(=O)c2cc3c(=O)n(CCOC)c(=O)c3cc2c1=O | -6%
Cc1ccccc1NC(=O)c1cc(=O)c2ccccc2o1 | -11%
COc1ccc(CC(=O)n2nc(-c3cccnc3)nc2N)cc1 | -5%
O=C(Nc1cccnc1)c1cnn2c(C(F)F)cc(C3CC3)nc12 | -18%
COc1cc(NC(=O)C2=C(N3CCOCC3)/C(=C\c3ccc(N(C)C)cc3)CCC2)cc(OC)c1OC | -8%
CN1[C@H](CC(=O)c2ccccc2)CCC[C@H]1C[C@@H](O)c1ccccc1 | -5%
Cc1ccc(/C=C/C(=O)N2CCN(Cc3ccccc3)CC2)o1 | -26%
NC(=O)CCC(NS(=O)(=O)c1ccc(Cl)cc1)C(=O)NCc1ccccc1 (stereo not drawn) | -1%

(continued)
canonical_smiles | HPGD inh
O=C(c1cccc(Cl)c1)N1CCN(C(=O)c2ccco2)CC1 | -3%
C=CC(=O)OCCCC | ?
Cc1c(NC(=O)/C=C/c2cn(-c3ccccc3)nc2-c2ccccc2)c(=O)n(-c2ccccc2)n1C | -9%
CN(C)CC(C)(C)CNC(=O)C1CCN(Cc2ccccc2O)CC1 | -4%
Cc1nnc(SCC(=O)N2CCCCC2)n1CC1CCCO1 (stereo not drawn) | -10%
Cc1ccccc1-c1nc(CN2CCCC(C(=O)NCCCN3CCOCC3)C2)c(C)o1 (stereo not drawn) | -7%
C=CCOC(=O)N[C@@H](Cc1ccccc1)/C(C(=O)OC)=C(\C)NCc1ccccc1 | -2%
CCOc1cc(C(=O)OCC(=O)Nc2ccc(SC(F)F)cc2)cc(OCC)c1OCC | ?
COC(=O)c1sc(N)nc1C(C)(C)C | -12%
CCCCn1c(O)c(N=NC(=O)Cn2c(C(F)(F)F)nc3ccccc32)c2ccccc21 | -6%
CCOC(=O)c1nnn(-c2nonc2N)c1CN(CC)CC | -2%
COc1cc2c3c(c1OC)C1(C=CC(=O)C=C1)CC3N(C(C)=O)CC2 (stereo not drawn) | -5%
O=[N+]([O-])c1ccc(-c2cnc(SCc3ccccc3Cl)[nH]2)cc1 | ?
COc1cc(/C=N/Nc2cccc(C)c2)ccc1OC(=O)c1cccs1 | -13%
CC(C)CN1C(=O)c2ccc(C(=O)Nc3ccccn3)cc2C1=O | -9%
CCOC(=O)C1(C(F)(F)F)N=C(C(F)(F)F)Nc2ccc(F)cc21 (stereo not drawn) | 1%
CCC1=C(OC(=O)N(CC)CC)N2C(=O)OC(=NCC3CC3)[C@]2(C)[C@H]2C1=CC[C@H]1C(=O)N(CC)C(=O)[C@H]12 | -23%
O=C(/C=C/c1cccc([N+](=O)[O-])c1)NCCN1CCOCC1 | -5%
CC(=O)N/N=C(\C)c1cccc(NC(=O)c2cccs2)c1 | -4%
COc1cccc(C(=O)Nc2ccc(F)c(F)c2F)c1 | -8%

2 of the compounds above, as labelled records:
> O=[N+]([O-])c1ccc(-c2cnc(SCc3ccccc3Cl)[nH]2)cc1
  HPGD inh = ?
> COc1cc(/C=N/Nc2cccc(C)c2)ccc1OC(=O)c1cccs1
  HPGD inh = -13%

Next part:
canonical_smiles | HPGD inh
O=C(CC(O)(c1ccccc1)C(F)(F)F)c1cccs1 (stereo not drawn) | -4%
CC(=O)Nc1ccc2c(c1)nc1n2CCSC1 | -9%
CC(O)CNc1ncnc2nc[nH]c12 (stereo not drawn) | -22%
COc1ccc(NC(=O)C(OC)c2ccccc2)cc1Cl (stereo not drawn) | -7%
COc1cc(OC)cc(C(=O)NC2CCN(C(=O)N3c4ccccc4Sc4ccccc43)CC2)c1 | -13%
C=C(C)CN(CC#N)CC(=C)C | 0%
CC[n+]1c(/C=C/N(C)c2ccccc2)oc2ccc(F)cc21 | -3%
C=CC[N+](C)(C)CCCNC(=O)/C=N/O | -11%
COc1ccc(-c2c(C(C)=O)c(C)nc3sc4c(=N)n(N)cnc4c23)cc1 | -13%
CC(C)CC(C(=O)NC1CCCC1)N(Cc1cccs1)C(=O)c1snc(C(N)=O)c1N (stereo not drawn) | ?
CCCC(=Nc1ccc(N)cc1)C1=C(O)C(C(=O)OC)C(C)(C)CC1=O (stereo not drawn) | -10%
CC1(C)Cc2c(ccc3ccccc23)C(NNC(=O)c2cccnc2)=N1 | -13%
O=C(O)CCCCn1cnc2c(=S)nc[nH]c21 | -14%
CCC(=O)NCCC(c1ccco1)c1ccccc1OC (stereo not drawn) | ?
CC(=O)OC1C=C[C@]2(C)C(CC(OC(C)=O)[C@@]3(C)C4=CC(=O)OC(c5ccoc5)[C@]4(C)CCC23)C1(C)C (stereo partly drawn) | -7%
O=c1c(-c2nc3ccccc3s2)cccn1Cc1ccc(Cl)c(Cl)c1 | ?
O=C1NCCCc2c1oc1ccc(O)cc21 | -19%
O=S(=O)(c1ccc(Cl)cc1)n1nnc2ccccc21 | -13%
O=C(CN1CCCC1)NC12CC3CC(CC(C3)C1)C2 | -12%
CN(C)S(=O)(=O)c1cccc(NC(=S)NN=C(Cc2ccccc2)Cc2ccccc2)c1 | -17%

Next results:
canonical_smiles | HPGD inh
CCOc1cc(C(=O)O)cc(Cl)c1OCC#N | -4%
CC(=O)/C(=N\Nc1ccccc1)Sc1cccc2cccnc12 | -13%
Cn1c(NC(=O)c2ccco2)cc(=O)n(C)c1=O | -10%
C=CCNC(=O)COC(=O)c1cc(S(=O)(=O)N2CCOCC2)ccc1N1CCCCC1 | -7%
CCOc1ccccc1C(=O)Nc1cnn(Cc2ccc(F)cc2)c1 | -1%
COc1ccc(-c2csc(/C(C#N)=C(\O)CSc3nccn3C)n2)cc1OC | 25µM*
CCOCCCNCC(O)c1ccccc1 (stereo not drawn) | 5%
Cc1ccc(S(=O)(=O)Nc2ccccc2/C=N/c2nc3ccccc3n2C)cc1 | -21%
COc1cc(C(C(=O)NC(C)(C)C)N(Cc2ccccc2)C(=O)c2cnccn2)cc(OC)c1OC (stereo not drawn) | -7%
COc1ccc(OC)c(C(=O)c2coc3ccc(O)c(CN4CCOCC4)c23)c1 | -4%
O=S(=O)(NCc1ccccc1)c1ccc2c(c1)OCCO2 | ?
N#Cc1c(-c2ccccc2F)cc(-c2cccnc2)nc1N | ?
CCc1c(C#N)c(SCCC(=O)Nc2ccc(C)cc2)nc2c1C(=O)CC(C)(C)C2 | -8%
COc1cccc(OC)c1OCCOc1ccccc1OC(C)C | -11%
CCCCCn1c(CN2CCCCC2CC)nc2c1c(=O)n(C)c(=O)n2C (stereo not drawn) | -1%
OC(COc1cccc(OCC(O)CN2CCCC2)c1)CN1CCCC1 (stereo not drawn) | -1%
O=C(O)c1ccccc1NS(=O)(=O)c1cccc2ccccc12 | -4%
CCOC(=O)c1cc(-c2ccc(C)o2)n[nH]1 | -4%
COc1cc(-c2nn3c(-c4ccco4)nnc3s2)cc(OC)c1OC | -15%
COCCn1nnnc1C(c1cc2cc(C)cc(C)c2[nH]c1=O)N1CCN(c2ccccc2F)CC1 (stereo not drawn) | ?

4 entries from above, set out differently:
> CC(=O)/C(=N\Nc1ccccc1)Sc1cccc2cccnc12
- HPGD inh: -13%

> CCc1c(C#N)c(SCCC(=O)Nc2ccc(C)cc2)nc2c1C(=O)CC(C)(C)C2
- HPGD inh: -8%

> OC(COc1cccc(OCC(O)CN2CCCC2)c1)CN1CCCC1 (stereo not drawn)
- HPGD inh: -1%

> COc1cccc(OC)c1OCCOc1ccccc1OC(C)C
- HPGD inh: -11%

The listing continues.
canonical_smiles | HPGD inh
Cc1ccc(-n2c(CCC(=O)O)ccc2-c2cccs2)cc1 | -20%
Cc1cc(C=C(C#N)C#N)c(C)n1-c1ccccc1 | -9%
Cn1c(=O)c2c(nc(NCc3ccco3)n2CC(O)COc2ccccc2)n(C)c1=O (stereo not drawn) | -9%
FC(F)(F)c1nnc(-c2ccccc2)nc1Oc1ccc(Cl)cc1Cl | -4%
Cc1cc(=O)oc2cc(OCC(=O)OCc3nnc(-c4ccccc4)o3)ccc12 | ?
COC(=O)[C@@]1(Cc2ccc(OC)cc2)[C@H]2c3cc(C(=O)N4CCCC4)n(Cc4ccc(C(F)(F)F)nc4)c3C[C@H]2CN1C(=O)c1ccccc1 | -11%

Screening results (PubChem BioAssay)

Not all compounds are listed. The share of hits here may be higher or lower than overall.
